Source: PubChem BioAssay (ICCB-Longwood Screening Facility, Harvard Medical School)
GIV-Gai inh: inhibitors of GIV GBA-motif binding to rat Galpha-i3; P08753; Galpha-i3/FITC-GIV peptide fluorescence polarization, 90 min; hits give low values; scaled: aluminum fluoride 0%, vehicle 100%; percent of control (FP), % (no concentration beside the values); 210,000 tested, 0.42% active;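 active means replicate mean at 85% of control or lower, very high polarization wells dropped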;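 further: wells of about 15 µL received 100 nL stock; the first replicate is given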
Target sequence (P08753 whole entry, looked up): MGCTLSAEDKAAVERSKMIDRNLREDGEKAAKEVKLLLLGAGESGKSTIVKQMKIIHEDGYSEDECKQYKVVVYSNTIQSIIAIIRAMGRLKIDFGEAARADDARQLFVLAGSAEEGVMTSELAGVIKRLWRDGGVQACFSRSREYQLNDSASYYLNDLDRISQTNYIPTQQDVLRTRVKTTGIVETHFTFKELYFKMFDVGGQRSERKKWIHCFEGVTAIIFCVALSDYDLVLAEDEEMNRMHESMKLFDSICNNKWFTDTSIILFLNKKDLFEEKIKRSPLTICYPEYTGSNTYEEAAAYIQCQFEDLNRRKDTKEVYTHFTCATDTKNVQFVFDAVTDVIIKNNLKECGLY
Sa growth 42C: inhibitors of Staphylococcus aureus growth at 42 °C; S. aureus RN4220 growth, OD600, 20 h; hits give low values; relative growth, % (no concentration beside the values); 170,000 tested, 0.53% active; AID 720641;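 active means growth at 42 °C up to 50% and 20 or more points under that at 30 °C, or under 10% at both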;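 further: 300 nL library stock went into each well; scaled to the means of positive and negative controls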
HCMV NEC inh: disrupts HCMV UL50-UL53 complex binding. 190,000 tested, 0.15% active. inhibition, % (test concentration not listed). HTRF UL50-UL53 interaction, normalized percent inhibition. AID 1918969;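 active means both replicates at 50% or more, plus weaker picks with an unusually low signal ratio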;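 further: stock transfer was 100 nL into about 20 µL; 0% = negative control wells and 100% = wells with untagged competitor protein; inactives centre near -12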
Sa growth 42C second temp: second read-out of Sa growth 42C, no call of its own (marks repeat the call); relative growth, %; measured here: growth at 30 °C;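 optical density after 20 h as mean of two plates; 100% = untreated growth and lower means inhibition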
* hit, by the source's call; · = no result given; & = joins results of further samples. Hits appear at their usual frequency, and some 0.82% of all compounds hit somewhere here.

SMILES	GIV-Gai inh	Sa growth 42C	Sa growth 42C second temp	HCMV NEC inh
CCc1noc(-c2ccc(N3CCCCC3)c([N+](=O)[O-])c2)n1	100	105	84	-44
CN1CCN(C2=NC(=O)/C(=C\C=C/c3ccccc3)S2)CC1	142	101	54	-23
O=C(O)c1cccc(C(=O)O)c1F	100	90	94	-6
Cc1ccc(NC(=O)CN2CCc3ccccc32)cc1C	·	85	88	-11
CC(=O)Nc1cccc(-c2cn3cccnc3n2)c1	105	116	89	·
O=C1CCSc2cccc3cccc(c23)N1	102	95	95	-24
Cc1ccc(-c2nnc(Nc3ccc(C(N)=O)cc3)c3ccccc23)cc1S(N)(=O)=O	98	102	90	·
COC(=O)C1C2C=CC3(CN(C(C)c4ccncc4)C(=O)C13)O2 (stereo not drawn)	104	97	107	-12
O=C(CCSCc1cnn(-c2ccccc2)c1-n1cccc1)NCc1cccs1	102	110	79	·
N#C/C(=C(/O)CCCl)c1ccccn1	·	99	89	-34
CC(C)(C)c1ccccc1OCC(=O)NCc1ccccc1	·	99	93	-7
S=c1[nH]c2ccc3ccccc3c2[nH]1	104	138	85	-27
CN(C)S(=O)(=O)c1ccc(NC(=O)CNCc2ccco2)cc1	108	89	88	8
CCN1CCN(C(=O)c2cn(-c3ccccc3)nc2-c2ccc(OC)cc2)CC1	·	105	92	-4
Cc1ccc(-c2nn(C)c(=O)c3ccccc23)cc1CNC(=O)c1ccco1	·	97	85	-2
Cc1ccc(C)c(OCCC(=O)NCc2ccc3c(c2)OCO3)c1	·	98	97	-12
O=C(NCc1ccccc1)C1CCCN1c1nnc(N2CCCC2=O)s1 (stereo not drawn)	103	109	94	·
COc1ccc(C2C(C#N)=C(/N=C/N(C)C)Oc3c2c(C)nn3-c2ccccc2)cc1 (stereo not drawn)	·	90	91	-10
O=C(c1ccccc1)n1c(=O)oc2ccccc21	107	97	105	13
CSc1ccc(CCNCc2c(C(=O)O)n(C)c3cc(C)ccc23)cc1	106	113	93	·
O=C(c1ccc2ccccc2n1)N1CCCCCC1	·	110	101	-5
COc1ccc(OC)c(S(=O)(=O)NCC(c2ccco2)S(=O)(=O)c2ccccc2)c1 (stereo not drawn)	102	145	81	·
Cc1cccc(NC(=O)NC2CC3CCCC(C2)N3CC(C)C)c1 (stereo not drawn)	100	81	90	-9
Cn1cccc1/C=C1\CCC/C(=C\c2cccn2C)C1=O	-88*	58	52	-78
Cc1oc(-c2ccc(Cl)cc2)nc1CN1CCCC(C(=O)NCc2ccc(Cl)cc2)C1 (stereo not drawn)	103	98	91	-29
Cc1oc2ccc(O)c(CN3CCCC3)c2c1C(=O)NC1CCCC1	100	·	·	-11
COCc1nnc(NC(=O)c2cc(OC)c(OC)c(OC)c2)s1	108	102	93	4
CCCc1cc(=O)oc2c1c(C)nn2C	100	124	93	0
Cc1cc2n(n1)CCC(=O)N2CC(=O)NCCC(C)C	108	·	·	-4
CCn1c(SCC(O)c2ccccc2)nnc1-c1ccccc1 (stereo not drawn)	·	99	91	-9

Molecules listed so far that contain a carbonyl joined to an NH by a bond outside any ring (14):
SMILES	GIV-Gai inh	Sa growth 42C	Sa growth 42C second temp	HCMV NEC inh
Cc1ccc(NC(=O)CN2CCc3ccccc32)cc1C	·	85	88	-11
CC(=O)Nc1cccc(-c2cn3cccnc3n2)c1	105	116	89	·
Cc1ccc(-c2nnc(Nc3ccc(C(N)=O)cc3)c3ccccc23)cc1S(N)(=O)=O	98	102	90	·
O=C(CCSCc1cnn(-c2ccccc2)c1-n1cccc1)NCc1cccs1	102	110	79	·
CC(C)(C)c1ccccc1OCC(=O)NCc1ccccc1	·	99	93	-7
CN(C)S(=O)(=O)c1ccc(NC(=O)CNCc2ccco2)cc1	108	89	88	8
Cc1ccc(-c2nn(C)c(=O)c3ccccc23)cc1CNC(=O)c1ccco1	·	97	85	-2
Cc1ccc(C)c(OCCC(=O)NCc2ccc3c(c2)OCO3)c1	·	98	97	-12
O=C(NCc1ccccc1)C1CCCN1c1nnc(N2CCCC2=O)s1 (stereo not drawn)	103	109	94	·
Cc1cccc(NC(=O)NC2CC3CCCC(C2)N3CC(C)C)c1 (stereo not drawn)	100	81	90	-9
Cc1oc(-c2ccc(Cl)cc2)nc1CN1CCCC(C(=O)NCc2ccc(Cl)cc2)C1 (stereo not drawn)	103	98	91	-29
Cc1oc2ccc(O)c(CN3CCCC3)c2c1C(=O)NC1CCCC1	100	·	·	-11
COCc1nnc(NC(=O)c2cc(OC)c(OC)c(OC)c2)s1	108	102	93	4
Cc1cc2n(n1)CCC(=O)N2CC(=O)NCCC(C)C	108	·	·	-4

Additional structures:
SMILES	GIV-Gai inh	Sa growth 42C	Sa growth 42C second temp	HCMV NEC inh
CC(C)n1cnc(S(=O)(=O)N2CCCC(C(=O)N3CCC(N4CCCCC4)CC3)C2)c1 (stereo not drawn)	106	·	·	-16
CCOc1ccc2[nH]c(=S)c(C#N)cc2c1	111	95	31	-72
Cc1c(C(=O)O)sc2[nH]c(=S)[nH]c(=O)c12	95	84	88	-11
Cc1nnsc1C(=O)Nc1ccccc1	100&100	91	88	-22&6
CCOC(=O)c1c(C)oc2nc(C)nc(N3CCN(c4ccc(C)cc4C)CC3)c12	109	106	100	·
COC(=O)c1sccc1NC(=O)C1=Cc2sc3c(c2CS1)CCCC3	106	·	·	-7
NC(=O)CSc1nc2cc(Cl)ccc2o1	·	118	92	-6
Cc1nn(CC(=O)NCC2CCCO2)c(=O)c2c(-n3cccc3)n(-c3ccccc3)nc12 (stereo not drawn)	97	·	·	8
Cn1c(=O)c(-c2noc(CCC(=O)Nc3ccc(Cl)cn3)n2)nn(-c2ccccc2)c1=O	104	·	·	-121
CCCn1c(NCc2ccccc2C)nc2ccccc21	106	100	96	14
CCOc1cc2c(C#N)c(N(CC)CC)nc(N)c2c(N)n1	·	102	88	13
CCOC(=O)c1c(NC(=O)CSc2cn(CCNC(=O)c3ccccc3OC)c3ccccc23)sc2c1CCCC2	102	105	86	16
O=C1COc2cc(S(=O)(=O)N3CCCC3C(=O)Nc3ccc4c(c3)OCCO4)c(Cl)cc2N1 (stereo not drawn)	99	·	·	-22
CCn1c(=O)c(=O)[nH]c2cc(C(=O)NCC3CCCCC3)ccc21	·	92	93	-18
CCOc1ccccc1NC(=O)C(CC(C)C)NC(=O)C1CCC(C)CC1 (stereo not drawn)	114	90	94	12
O=C1c2ccccc2C(=O)N1c1nc2n(n1)C(c1ccccc1)C=C(c1ccc(Cl)cc1)N2 (stereo not drawn)	101	·	·	-24
CC(C)(CO)NC(=O)NCC12CC3CC(CC(C3)C1)C2	101	94	90	-32
c1ccc(N=P(c2ccc(N3CCOCC3)cc2N2CCOCC2)(N2CCOCC2)N2CCOCC2)cc1	·	101	88	-3
Cc1noc(C)c1CN1C(=O)NC(CCc2ccccc2)C1=O (stereo not drawn)	·	94	85	-28
COc1cc2nc(CN(C)Cc3ccc(C)o3)[nH]c(=O)c2cc1OC	·	105	86	-17
CCS(=O)(=O)N1CCC(C(=O)OCC(=O)c2cc(C)n(C(C)C)c2C)CC1	·	97	100	-3
CCc1ccccc1NC(=O)Cn1c(=O)n(Cc2ccccc2)c(=O)c2c(C)c(C(=O)N(C)C)sc21	104	114	76	·
CN(C)C1(CNC(=O)C2COc3ccccc3O2)CCCCC1 (stereo not drawn)	102	117	99	-3&-8
CCOc1ccccc1NC(=O)CSc1nc2c(sc3ccccc32)c(=O)n1CCCC(=O)NC1CCCC1	103	120	94	-20
CCOC(=O)C1=C(O)C(=O)N(CCCn2ccnc2)C1c1ccc(OC)cc1 (stereo not drawn)	·	100	94	-24
Cc1cc(C)n2nc(SCC(=O)N3CCNC3=O)nc2n1	·	81	97	1
Nc1ncc(C(F)(F)F)cc1Cl	103	93	96	-7
COc1cc(C2C(C#N)=C(N)OC3=C2C(=O)CC(c2ccccc2)C3)ccc1OCc1ccccc1 (stereo not drawn)	106	·	·	-11
Cc1ccc(Nc2nc3nonc3n3nnnc23)cc1C	112	56	40	-30
CCn1c(=O)c(-c2noc(C(=O)N3CCOCC3)n2)nn(-c2ccccc2)c1=O	99	·	·	-130
CCc1ccc(NC(=O)Cn2c(=O)n(CCCC(=O)NCc3ccccc3OC)c(=O)c3ccccc32)cc1	103	89	102	20
COc1ccc(-c2[nH]c(-c3ccc(Cl)cc3)nc2SCC(=O)NCC2CCCO2)cc1 (stereo not drawn)	103	97	84	-14
CC(C)(C)c1cc(C(C)(C)C)c2oc(=O)c(-c3nc4ccc(C(=O)O)cc4[nH]3)cc2c1	98	19	24	·
O=c1[nH]c2cc3c(cc2cc1CN(CCN1CCOCC1)C(=S)Nc1ccccc1)OCCO3	104	99	111	-24
c1ccc(-c2[nH]ncc2CN2CCN(Cc3ccc4c(c3)OCO4)CC2)cc1	105	85	89	-36
N#C/C=C/c1ccc(Br)cc1	·	69	80	-33
COc1ccccc1-c1noc(-c2cc(-c3ccccc3)n[nH]2)n1	101	·	·	-11
CCC1CCCCN1C(=O)CCNC(=O)Cn1cnc2ccccc2c1=O (stereo not drawn)	103	95	100	17
CCC(=O)Nc1c(C(=O)N2CCOCC2)oc2ccccc12	103	102	98	-3
Cc1ccc(S(=O)(=O)N2CCCc3cc(NS(=O)(=O)c4ccccc4)ccc32)cc1	99	93	92	·
COc1ccc(C(CC(=O)O)N2C(=O)c3ccccc3C2=O)cc1 (stereo not drawn)	100	99	94	-20
O=C(NCc1cccnc1)c1noc2c1CCCC2	103	98	83	·
CC(C)(C)c1cc(NC(=O)/C=C/c2cccs2)n(-c2ccccc2)n1	·	94	93	-20
CC1=C(C(=O)OCc2ccc3c(c2)OCO3)C(c2ccc(O)c([N+](=O)[O-])c2)NC(=O)N1 (stereo not drawn)	99	·	·	-30
c1ccc(Cn2cc(Cn3nnc(-c4ccccc4)n3)nn2)cc1	·	101	88	-10
CC(=O)Nc1ccc(SCC(=O)C(C)(C)C)cc1	·	89	96	-2
COC(=O)c1ccccc1OCCOCCOc1cccc2cccnc12	101	121	87	-64
COc1cc(-c2nc(=S)[nH][nH]2)cc(OC)c1OC	105	70	76	18
CN(C)/C=C(\C(=O)Nc1ccc(F)c(F)c1F)S(=O)(=O)c1ccccc1	101	101	86	-22
O=C(NCc1cc(F)cc2c1OCOC2)c1ccc(N2CCOCC2)nc1	101	94	84	-33

The results go on.
SMILES	GIV-Gai inh	Sa growth 42C	Sa growth 42C second temp	HCMV NEC inh
CCc1ccc(OCC(=O)Nc2cc(-c3nc4ccccc4o3)ccc2OC)cc1	103	106	69	-19
O=c1c(S(=O)(=O)c2ccc(F)c(F)c2)c[nH]c2c(F)ccc(Cl)c12	100	·	·	-33
CCn1c(=O)c(-c2noc(C(=O)NCC3CCCO3)n2)nn(-c2ccc(F)cc2)c1=O (stereo not drawn)	103	·	·	-128
O=C1CC(c2ccccc2O)CC2=C1C(c1ccccc1)n1ncnc1N2 (stereo not drawn)	100	·	·	-22
COCCN(Cc1ccccc1)C(=O)c1cccc(S(=O)(=O)N2CC(C)OC(C)C2)c1 (stereo not drawn)	·	126	91	-17
Cc1ccc(S(=O)(=O)N(CCc2ccccn2)c2ccc(C(C)C)cc2)cc1	108	80	75	-17
COc1cccc(CNC(=O)CSc2ncc(-c3ccc(Cl)cc3)o2)c1	108	·	·	-40
O=C(C[n+]1cccc(/C=N/O)c1)NCc1ccccc1	99	109	94	·
CCCNC(=O)c1ccc(-c2nc(CS(=O)c3ccccc3)c(C)o2)cc1 (stereo not drawn)	98	96	93	-13
CCC1(CC)Cc2ccccc2-c2nc3n(c(=O)c21)CCS3	100	103	93	·
O=C(Cn1cc(/C=C2\SC(=S)NC2=O)c2ccccc21)NCc1ccco1	251	107	76	-4
CCOC(=O)c1c(C)oc2c1c(C=NCCC1=CCCCC1)c(O)c1ccccc12	103	76	81	·
Cc1nn(-c2ccccc2)c2nc3c(cc12)C(=O)CC(C)(C)C3	·	106	86	13
CCSc1nc2ncn(CC(=O)Nc3cccc(Cl)c3)c(=O)c2s1	104	·	·	-17
COC(=O)c1cc2ccsc2n1CC(=O)Nc1ccccc1OC	105	·	·	5
CC(C)(C)NC(=O)C1C2CCCCC21 (stereo not drawn)	93	95	104	-30
COc1ccc(N2Cc3cccc(C(=O)Nc4ccc(Cl)cc4)c3C2=O)cc1	104	104	89	-36
CCOc1ccc(NC(=O)Nc2c[nH]c(=O)[nH]c2=O)cc1	107&98	108	82	-22&-16
Cc1oc(C(=O)NC(=O)Nc2cccc(C(F)(F)F)c2)nc1-c1ccccc1	103	99	94	-43
COCCNC(=O)Cc1ccc(C)cc1	101	116	92	-16
CCN1C(=O)C(Cc2nc3ccccc3c(=O)n2CC)c2ccccc21 (stereo not drawn)	105	98	75	-5
CCOC(=O)c1cccc(Nc2cc(C)nc(C)n2)c1	104	100	86	2
Cc1ccc(S(=O)(=O)N(Cc2nc(-c3ccc(Cl)cc3)no2)C2CCCCC2)cc1	106	100	91	-28
O=C(CN1C(=O)CCc2ccccc21)NCCc1ccccc1	100	93	85	·
COc1ccc(CNC(=O)c2ccc3c(c2)N(Cc2ccc(C)cc2)CCS3)cc1	103	115	87	-27
COc1ccc(OC)c(C(=O)c2ccc(C(=O)N3CCCCC3)cc2)c1	103	101	87	-7
Cc1ccc(C)c(NC(=O)C(c2ccccc2)N2Cc3ccccc3C2=O)c1 (stereo not drawn)	112	85	88	·
